# Source: PubChem (several laboratories)
# RGS16-Gao: modulates binding between human RGS16 and Galphao | O15492+P09471 | bead-based flow cytometry RGS16-Galphao binding, fluorescence; actives lie on both sides | binding response (% of control), % at 10 µM | 220,000 compounds, 0.38% hits;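 active means below 25% or above 175%, edge rows of some plates excepted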;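 further: Galphao activated by GDP with aluminum fluoride before binding; 100% = wells without compound and 0% = beads without RGS; some results beyond the cut were filed as inactive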
# Target sequence (O15492 whole entry, looked up): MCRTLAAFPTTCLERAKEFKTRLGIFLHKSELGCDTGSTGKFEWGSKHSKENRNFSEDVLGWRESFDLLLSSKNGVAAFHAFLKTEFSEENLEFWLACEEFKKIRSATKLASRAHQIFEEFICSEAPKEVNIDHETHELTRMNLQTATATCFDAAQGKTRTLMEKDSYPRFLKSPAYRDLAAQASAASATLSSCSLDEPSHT
# Target sequence (P09471 whole entry, looked up): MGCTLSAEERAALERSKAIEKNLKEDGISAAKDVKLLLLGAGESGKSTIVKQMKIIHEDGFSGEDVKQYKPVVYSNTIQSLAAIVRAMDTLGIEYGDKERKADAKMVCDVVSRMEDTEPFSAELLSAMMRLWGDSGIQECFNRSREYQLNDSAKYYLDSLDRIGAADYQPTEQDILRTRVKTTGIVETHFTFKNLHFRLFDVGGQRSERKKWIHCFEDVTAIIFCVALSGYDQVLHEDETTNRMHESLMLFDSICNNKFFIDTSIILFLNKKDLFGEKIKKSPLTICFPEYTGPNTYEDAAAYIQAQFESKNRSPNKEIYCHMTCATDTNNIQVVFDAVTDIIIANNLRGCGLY
# Insulin prom inh: TRM-6 insulin promoter activity inhibition | inhibition, % at 2 µM | AID 1273 | TRM-6 cells (human fetal islet line), insulin promoter-eGFP reporter, imaging; reporter expression induced with tamoxifen | 130,000 compounds, 0.9% hits;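 active means inhibition above the mean plus 3 SD, with well images judged a real hit on visual review, cut at about 60% in these data, passing the limit was not always enough; inconclusive means inhibition over the cutoff but images rejected on review; inactive means inhibition not above the cutoff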
# GALR2 ag: activates the human galanin receptor 2; O43603; GALR2-expressing cells, agonist activation read-out; activation, %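 (tested at 5 µM)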; 140,000 compounds, 0.48% hits; AID 803;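 active means above mean plus 3 SD of all compounds, about 5% in these data, not always enough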;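 further: 0% = vehicle buffer wells and 100% = reference agonist at full effect; tested in CHO reporter cells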
# Target sequence (O43603 whole entry, looked up): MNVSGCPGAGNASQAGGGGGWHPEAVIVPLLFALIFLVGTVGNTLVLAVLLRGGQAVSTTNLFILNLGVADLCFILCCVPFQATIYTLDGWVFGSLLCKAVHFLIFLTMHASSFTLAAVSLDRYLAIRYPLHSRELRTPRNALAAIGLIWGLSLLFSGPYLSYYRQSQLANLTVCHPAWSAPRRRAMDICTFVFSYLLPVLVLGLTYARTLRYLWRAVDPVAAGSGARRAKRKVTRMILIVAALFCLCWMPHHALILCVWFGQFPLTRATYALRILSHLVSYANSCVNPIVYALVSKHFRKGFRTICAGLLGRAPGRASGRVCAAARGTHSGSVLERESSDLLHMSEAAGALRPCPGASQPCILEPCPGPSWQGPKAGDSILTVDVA
# PKD1 kinase inh: inhibitors of human PKD1 kinase. 200,000 compounds, 0.056% hits. AID 797. Q15139. inhibition, %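 (about 10 µM by stock and volumes)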. PKD1 kinase fluorescence polarization assay;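 active means inhibition of 50% or more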;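 further: controls were vehicle for no effect and a reference inhibitor for full effect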
# HSV augment: increases HSV replication in cells | HSV replication augmentation in cells, fold increase | maximum fold increase | 220,000 compounds, 0.005% hits;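 active means peak rise of 1.5-fold or more in the series; inconclusive means self-fluorescent or not available for retest; tested in PC3 cells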;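 further: first round at 10 µM; read as green reporter fluorescence; hits show the peak of a series up to 25 µM; 1 = signal of infected wells without compound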
# Insulin prom inh cell count: second read-out of Insulin prom inh, no call of its own (marks repeat the call); normalized cell count, %; measured here: cell count, toxicity; reference of the scale not given here;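 cells exposed to compound for 48 h; stained nuclei by imaging scaled within each plate; lower means fewer cells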
# HSV augment primary fold: recorded beside HSV augment, whose call it bears; fold increase; compound at 10 µM; measured here: primary screen fold increase 10 uM; tested in PC3 cells;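 GFP signal in the first replicate; 1 = infected wells without compound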
# * hit, by the source's call; i = inactive; ? = inconclusive; . = no result given; & = joins results of further samples.
Compound	RGS16-Gao	Insulin prom inh	Insulin prom inh cell count	GALR2 ag	PKD1 kinase inh	HSV augment	HSV augment primary fold
CC(C)(C)N(NC(=O)c1ccccc1)C(=O)c1cccc(C(=O)N(NC(=O)c2ccccc2)C(C)(C)C)c1	105	.	.	0.6	2	i	0.87
CCc1nc(SCC(N)=O)c2c(=O)n(C)c(=O)n(C)c2n1	99	.	.	-1.1	-3	i	0.86
COc1cc(OC)nc(NC(=O)C(C)C)n1	103	.	.	-0.3	2	i	1.1
Cc1ccc(OCC(O)Cn2c(=N)n(Cc3ccccc3)c3ccccc32)cc1 (centres undefined)	102	-80	79	-0.9	8	i	0.62
CCN(CC)CCN1C(=O)C(O)=C(C(=O)c2cccs2)C1c1ccccn1 (centres undefined)	102	26	115	-1.8	1	i	0.88
O=c1[nH]cnc(O)c1C(c1ccc2c(c1)OCO2)c1c(O)nc[nH]c1=O	103	-38	75	.	-2	i	0.96
Cc1cc(NC(=O)C(C)C)n(-c2nc3ccccc3s2)n1	101	.	.	.	4	i	0.97
CCC(C)(C)n1nnnc1C(c1ccc(N(C)C)cc1)N1CCN(C2CCCCC2)CC1 (centres undefined)	101	30	136	-1.8	4	i	1
CN(C)S(=O)(=O)c1ccc(C(=O)Nc2nnc(SCc3ccccc3)s2)cc1	76	28	94	-0.4	0	i	1.1
O=C(COC(=O)CNC(=O)c1cccc([N+](=O)[O-])c1)NCc1ccco1	100	.	.	.	0	i	0.98
CC(C)N=C(NC#N)SCc1ccccc1	98	37	66	-1.3	4	i	0.84
Cc1ccc(S(=O)(=O)N2CCC(C(=O)N[C@@H](C)C(=O)NC3CCCCC3)CC2)cc1	106	.	.	0.6	-1	i	0.76

# By substructure, those above with an aryl thioether with sulfur outside any ring
Compound	RGS16-Gao	Insulin prom inh	Insulin prom inh cell count	GALR2 ag	PKD1 kinase inh	HSV augment	HSV augment primary fold
CCc1nc(SCC(N)=O)c2c(=O)n(C)c(=O)n(C)c2n1	99	.	.	-1.1	-3	i	0.86
CN(C)S(=O)(=O)c1ccc(C(=O)Nc2nnc(SCc3ccccc3)s2)cc1	76	28	94	-0.4	0	i	1.1

# Further results.
Compound	RGS16-Gao	Insulin prom inh	Insulin prom inh cell count	GALR2 ag	PKD1 kinase inh	HSV augment	HSV augment primary fold
Cc1c(Nc2nc3ccccc3nc2N2CCN(c3ccccc3)CC2)c(=O)n(-c2ccccc2)n1C	103	6	91	-3.6	3	i	0.85
CCOC(=O)C1(CCOC)CCN(Cc2ccc3nonc3c2)CC1	101	.	.	.	.	i	0.93
COc1ccccc1-c1noc(-c2ccco2)n1	105	44	136	-2.8	-6	i	0.9
COC(=O)[C@H](Cc1ccccc1)NC(=O)NCCc1ccc(F)cc1	98	.	.	.	.	i	0.96
O=C(NCc1ccc2c(c1)OCO2)c1ccc2c(c1)C(=O)N(CC1CCCO1)C2=O (centres undefined)	81	-50	85	-3.7	0	i	0.86
Cc1ccc(S(=O)(=O)NCCC(=O)OCn2nnc3ccccc3c2=O)cc1	99	5	156	-0.6	-1	i	1
CCN(CC)c1nc(-c2ccc(Cl)cc2)cc(C(F)(F)F)c1C#N	106	-10	63	0.0	2	i	0.96
O=c1cc(CO)oc(CN2CCN(c3ccccc3)CC2)c1O	101	-3	104	-4.2	-17	i	1
C=CCN=C1CC(C)(C)CC(=O)/C1=C(\O)CCCN1C(=O)c2ccccc2C1=O	104	.	.	.	-2	i	0.78
Cc1ccc(Nc2nc(=O)c3cccnc3s2)cc1	94	30	65	-1.1	-7	i	0.93
Cc1ccc(C2C(C#N)=C(N)Oc3n[nH]c(-c4cccs4)c32)s1 (centres undefined)	99	-9	75	-1.4	-3	i	0.87
COc1ccc(C)cc1NC(=O)C1CCC(CNc2c(N3CCOCC3)c(=O)c2=O)CC1 (centres undefined)	99	.	.	-1.9	-9	i	0.98

# Look-ups from the entries so far.
# Entry of C=CCN=C1CC(C)(C)CC(=O)/C1=C(\O)CCCN1C(=O)c2ccccc2C1=O under PKD1 kinase inh: -2
# Entry of Cc1ccc(Nc2nc(=O)c3cccnc3s2)cc1 under Insulin prom inh: 30
# Entry of Cc1c(Nc2nc3ccccc3nc2N2CCN(c3ccccc3)CC2)c(=O)n(-c2ccccc2)n1C under GALR2 ag: -3.6

# Compounds shown so far that have two or more sulfur atoms (2):
Compound	RGS16-Gao	Insulin prom inh	Insulin prom inh cell count	GALR2 ag	PKD1 kinase inh	HSV augment	HSV augment primary fold
CN(C)S(=O)(=O)c1ccc(C(=O)Nc2nnc(SCc3ccccc3)s2)cc1	76	28	94	-0.4	0	i	1.1
Cc1ccc(C2C(C#N)=C(N)Oc3n[nH]c(-c4cccs4)c32)s1 (centres undefined)	99	-9	75	-1.4	-3	i	0.87

# Remaining list, next part.
Compound	RGS16-Gao	Insulin prom inh	Insulin prom inh cell count	GALR2 ag	PKD1 kinase inh	HSV augment	HSV augment primary fold
N#Cc1ccccc1Oc1ccccc1C=O	106	.	.	.	3	i	0.8
O=C(Oc1ccc(-c2cnc3ccccc3n2)cc1)c1cccc([N+](=O)[O-])c1	86	17	119	-2.4	-3	i	0.99
Nc1nc(N)c2c(n1)CCCC2	102	.	.	.	.	i	0.74
COc1ccc(/C=C(/C(=O)c2cccs2)N2C=CC=CC2=C(C#N)C#N)cc1	95	.	.	2.9	9	?	.
COc1ccc(C(C(=O)NC2CCCC2)N(C(=O)c2snc(-c3ccc(F)cc3)c2N)c2cccc(F)c2)cc1 (centres undefined)	101	.	.	-1.9	0	i	0.72
COc1ccc(-c2cn3cc(C)ccc3n2)cc1F	102	8	58	.	-1	i	0.94
CC(=O)OCC(=O)[C@@]12OC3(CCCC3)O[C@@H]1C[C@H]1[C@@H]3CCC4=CC(=O)C=C[C@]4(C)[C@@]3(F)[C@@H](O)C[C@@]12C	102	-27	87	2.8	-7	i	0.99
CCOC(=O)CC(=O)NC(CC(=O)OC)c1ccc(C(C)C)cc1 (centres undefined)	98	-27	95	.	1	i	1
O=Nc1c(O)n(Cc2ccc(Cl)cc2)c2ccccc12	97	17	60	-0.8	-7	i	0.93
COC(=O)c1ccccc1N=Nc1c(N)n[nH]c1N	106	.	.	.	.	i	0.96
CCNc1nc(NCc2ccccc2)nc(SCC(N)=O)n1	110	8	95	.	-1	i	0.89
O=C(Nc1cccc(-c2cn3cccnc3n2)c1)c1cccs1	97	.	.	0.4	2	i	1.1
CCN1CCN(C(c2cccs2)C(C)NC(=S)Nc2cccc(C)c2C)CC1 (centres undefined)	97	.	.	.	.	i	0.91
COc1ccc(-c2csc(NC(=O)c3ccccc3NS(=O)(=O)c3ccc(F)c(F)c3)n2)cc1	101	.	.	.	-2	i	0.71
Cc1ccc(-c2nc(CN(Cc3c(C)nn(C)c3C)C(C)C)c(C)o2)o1	103	.	.	.	-4	i	1.1
C=CCOc1nc2c(c(=O)n(Cc3ccc(Cl)cc3)c(=O)n2C)n1C	105	.	.	-0.7	6	i	0.87
CN1CCN(CC#CCC(O)(c2ccccc2)C2CCCC2)CC1 (centres undefined)	85	14	104	-2.7	5	i	0.86
CN1CCc2cc(Cl)c(O)cc2[C@@H](c2ccccc2)C1	101	.	.	.	.	i	0.8
CC(=O)c1c(N2CCN(C)CC2)[nH]c(-c2ccccc2)nc1=S	108	0	125	-0.6	-8	i	1.1
O=C(c1cccc(C(F)(F)F)c1)C1CCCN(Cc2ccc(OCCO)cc2)C1 (centres undefined)	110	-4	170	.	-12	i	0.9
Cc1ccc(Sc2ccc([N+](=O)[O-])cc2[N+](=O)[O-])nc1	107	-17	91	-1.1	1	i	0.64
CCOc1ccc(C(=O)N2CCC(C(=O)c3ccc4c(c3)OCCO4)CC2)cc1	97	21	246	-2.0	-23	i	0.78
CCCCCCNS(=O)(=O)c1ccc(OC)c(OC)c1	110	-55	48	-2.2	-2	i	1
O=C(N/N=C(\Cc1ncc[nH]1)c1ccccc1)c1cccnc1	98	.	.	.	3	i	0.72

# 5 compounds from above, ordered by the value under GALR2 ag, descending:
smiles | RGS16-Gao | GALR2 ag | PKD1 kinase inh | HSV augment | HSV augment primary fold
C=CCOc1nc2c(c(=O)n(Cc3ccc(Cl)cc3)c(=O)n2C)n1C | 105 | -0.7 | 6 | i | 0.87
Cc1ccc(Sc2ccc([N+](=O)[O-])cc2[N+](=O)[O-])nc1 | 107 | -1.1 | 1 | i | 0.64
CCOc1ccc(C(=O)N2CCC(C(=O)c3ccc4c(c3)OCCO4)CC2)cc1 | 97 | -2.0 | -23 | i | 0.78
CCCCCCNS(=O)(=O)c1ccc(OC)c(OC)c1 | 110 | -2.2 | -2 | i | 1
CN1CCN(CC#CCC(O)(c2ccccc2)C2CCCC2)CC1 (centres undefined) | 85 | -2.7 | 5 | i | 0.86

# The list goes on:
Compound	RGS16-Gao	Insulin prom inh	Insulin prom inh cell count	GALR2 ag	PKD1 kinase inh	HSV augment	HSV augment primary fold
O=C(Nc1nnc(-c2ccccn2)o1)c1ccc(Br)cc1	106	.	.	0.2	-15	.	.
O=C(NCC1CCCO1)c1ccc(CS(=O)(=O)c2c(Cl)cccc2Cl)o1 (centres undefined)	101	.	.	-2.9	0	i	1.4
COc1cccc(OCC(O)CN2C(C)CCCC2C)c1 (centres undefined)	102	3	106	-3.1	-4	i	0.93
COc1ccc(CCNC(=O)C/C(C)=N/NC(=O)C(c2ccccc2)c2ccccc2)cc1OC	102	.	.	.	.	i	1.3
COc1cc2c(cc1OC)C(c1cc3cc(OC)c(OC)cc3[nH]c1=O)N(C(=O)C1CC1)CC2 (centres undefined)	101	39	98	-1.4	-8	i	0.97
COc1cc(/C=N/NC(=O)C(C)Nc2n[nH]c(=O)[nH]c2=O)ccc1O (centres undefined)	138	.	.	-0.9	0	i	1.1
CCOc1ccc(C(=O)C(CCC(CN(C)C)C(=O)c2ccc(OCC)cc2)CN(C)C)cc1 (centres undefined)	106	.	.	3.0	-7	i	0.65
O=C(O)c1ccc(CN2CCOCC2)o1	100	.	.	.	-7	i	1.1
COc1cccc(CN2CCNC(=O)C2CC(=O)N(Cc2cnn(C)c2)C(C)C)c1 (centres undefined)	101	.	.	.	4	i	1.1
Cc1nnc(N2CCCCC2)c2ccccc12	104	21	106	-1.2	3	i	1
Cc1ccc(S(=O)(=O)N2CCOCC2)cc1NC(=O)CSc1n[nH]c(N)n1	78	39	74	.	0	i	1
CCOCCCNC(=O)C1CCN(S(=O)(=O)c2c(C)noc2/C=C\c2ccc(OC)cc2)CC1	.	-53	99	-1.9	9	i	0.7
CC(NC(=O)c1cc(=O)[nH]c2ccccc12)c1ccccc1 (centres undefined)	103	33	105	.	-4	i	0.97
O=C(NCCCN1CCCC1)c1cc2c(Cl)nc3ccccc3c2s1	97	-6	89	.	-6	i	0.67
COC(=O)C(C)n1cnc2c(nnn2Cc2ccc(Cl)cc2)c1=O (centres undefined)	115	.	.	-2.2	0	i	1.1
CCC(C)N1C(=O)S/C(=C/c2ccc3c(c2)n(C)c(=O)n3C)C1=O (centres undefined)	111	.	.	.	3	i	0.89
Cc1ccc(S(=O)(=O)N2CCN(c3cnn(-c4ccccc4)c(=O)c3Cl)CC2)cc1	103	36	90	-0.3	-11	i	1.1
CC(C)(C)C(=O)[C@@H]1[C@@H]2C(=O)N(c3ccc4c(c3)OCCO4)C(=O)[C@@H]2C2c3ccccc3C=CN21 (some centres undefined)	112	.	.	-2.9	-2	i	1.1
CCc1ccc(C(=O)CSc2nc3ccccc3c(=O)[nH]2)cc1	106	-38	120	-1.4	-7	i	0.8
COC(=O)c1ccc(NC(=O)CCN2CCCCC2)cc1	106&105	.	.	-1.1&-1.0	7&-18	i	0.87&1.1
CN(C)C(/C=C/Nc1ccc([N+](=O)[O-])cc1)=C(C#N)C#N	106	9	200	.	-7	i	1
C=CCOc1cccc(C2/C(=C(/O)c3ccc(F)cc3)C(=O)C(=O)N2CCN2CCOCC2)c1 (centres undefined)	99	-33	150	-1.4	-5	i	1
COc1cccc(NC(=O)CN(C)C(C)C(=O)Nc2ccc(S(=O)(=O)N3CCOCC3)cc2)c1 (centres undefined)	95	.	.	.	.	i	0.85
CCOc1ccc(NC(=O)CNC(=O)c2cccs2)cc1	104	24	124	.	-2	i	0.96
Cc1sc(NC(=O)C(C)C)c(C(=O)Nc2ccccc2)c1C	101	4	104	-1.2	2	i	0.92
COc1cc(C2C(C#N)=C(N)N(Nc3ccccc3)C3=C2C(=O)CC(C)(C)C3)ccc1OCc1cccc(F)c1 (centres undefined)	71	-10	62	0.7	-12	i	0.84
Cc1ccc(S(=O)(=O)C2(C(=O)Nc3cccc(F)c3)CC2)cc1	104	.	.	-0.7	-8	i	0.94
